# Assay outcomes (PubChem)
# CtBP-E1A blk – CtBP/E1A binding inhibition; AlphaScreen GST-E1A/His-CtBP binding, 1536-well; hits give low values; control for the full effect not named in the record; activity change, % (concentration not given with the values); 0.49% of 340,000 active; AID 651724; in the data active means activity change below about -65%; inconclusive means about -30% to -65%; inactive means above about -30%
#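 Protein mix (5X: 125 nM each GST-E1A, His-CtBP) was incubated with pinned compound 2 h at 37 deg C in dark, in 50 mM Tris pH 8.0 buffer with 300 mM NaCl. Glutathione donor and nickel acceptor beads followed; AlphaScreen signal read after 1 h.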
# Six1-Eya2 inh – blocks human Six1 binding to Eya2; 0.56% of 360,000 active; activity change, % (concentration not given with the values); AID 651725; AlphaScreen GST-Six1/His-Eya2 binding, biochemical; hits give low values; control for the full effect not named in the record; in the data active = activity change below about -65%; inconclusive = about -30% to -65%; inactive = above about -30%
# Target sequence (O00167 whole entry, looked up): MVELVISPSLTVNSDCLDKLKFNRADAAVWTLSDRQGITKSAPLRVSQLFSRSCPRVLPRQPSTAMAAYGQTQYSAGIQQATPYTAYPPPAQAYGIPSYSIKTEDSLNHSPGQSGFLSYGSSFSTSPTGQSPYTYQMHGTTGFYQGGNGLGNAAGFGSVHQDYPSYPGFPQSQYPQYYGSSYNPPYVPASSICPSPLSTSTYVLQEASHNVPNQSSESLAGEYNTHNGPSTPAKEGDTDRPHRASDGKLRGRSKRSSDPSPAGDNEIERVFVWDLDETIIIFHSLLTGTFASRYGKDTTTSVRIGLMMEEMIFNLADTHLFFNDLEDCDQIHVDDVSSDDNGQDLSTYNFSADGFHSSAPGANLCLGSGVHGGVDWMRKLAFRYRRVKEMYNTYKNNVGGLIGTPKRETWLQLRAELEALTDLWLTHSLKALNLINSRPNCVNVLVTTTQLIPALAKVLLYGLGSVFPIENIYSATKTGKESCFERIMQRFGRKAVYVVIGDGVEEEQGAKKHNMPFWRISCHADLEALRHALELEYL
# Target sequence (Q15475 whole entry, looked up): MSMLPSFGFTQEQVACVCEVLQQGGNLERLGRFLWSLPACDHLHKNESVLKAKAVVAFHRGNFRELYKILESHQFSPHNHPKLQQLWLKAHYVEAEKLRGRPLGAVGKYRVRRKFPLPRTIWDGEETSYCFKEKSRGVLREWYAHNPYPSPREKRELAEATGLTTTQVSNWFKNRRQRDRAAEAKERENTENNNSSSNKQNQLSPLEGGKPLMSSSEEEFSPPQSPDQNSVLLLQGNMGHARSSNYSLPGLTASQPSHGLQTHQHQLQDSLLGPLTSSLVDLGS
#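 GST-Six1 + His-Eya2 (5X stock: 250/500 nM); Tris pH 8.0, 300 mM NaCl, 0.05% BSA, 0.02% Tween 20; GSH donor/Ni acceptor beads; 1 h 37 °C dark; AlphaScreen readout.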
# An asterisk follows results filed as active. % is scaled to controls: 0 for no effect and ±100 for the full control effect.
SMILES,CtBP-E1A blk,Six1-Eya2 inh
Cc1cccc(C)c1NC(=O)C1(C)CN(S(C)(=O)=O)CC(=O)N1C1CC1 (stereo not given),5,0
O[C@@H]1CN(Cc2cccs2)[C@@H](c2ccccc2)C[C@H]1n1cc(C2CC2)nn1,-25,-3
COC(=O)[C@@]12C[C@@H](CC(=O)N3CCC(c4ccccc4)CC3)C(=O)N(Cc3ccccc3)C1=CCC(C)(C)C2,0,-16
COC(=O)[C@]12CCCCC=C1N(CCc1ccc(OC)c(OC)c1)C(=O)[C@H](CC(=O)N1CCC(c3ccccc3)CC1)C2,-22,-27
COc1ccc(NC(=O)N(C)C[C@H]2OCCCC[C@@H](C)Oc3ccc(NC(=O)c4ccccc4)cc3C(=O)N([C@H](C)CO)C[C@@H]2C)cc1,-7,-10
Cc1csc(-c2nc3ccccc3n2C(C(=O)NC(C)(C)C)c2cc3ccccc3o2)c1 (stereo not given),3,-11
COc1ccccc1CNC(=O)C[C@@H]1C[C@H]2c3cc(N(C)C)ccc3O[C@H]2[C@H](CO)O1,2,-2
COCCN1C(=O)CCC1(C)c1nnnn1-c1ccc2ccccc2c1 (stereo not given),0,5
CCCCNC(=O)c1nc(-c2cc3ccccc3[nH]2)oc1-c1ccccc1,0,5
Nc1ccn([C@@H]2O[C@H](CNCc3ccc(-c4cc(C(F)(F)F)ccc4Cl)o3)[C@@H](O)[C@H]2O)c(=O)n1,-3,-4
CCCCCCN1C[C@H](O)[C@@H](n2cc(C3CC3)nn2)C[C@@H]1c1ccc(OC)cc1,2,-1
Cc1ccc(S(=O)(=O)N2C3CC(c4ccccc4)N(S(=O)(=O)c4cccc(Cl)c4)CC3C(=O)C[C@H]2c2ccccc2)cc1 (stereo not given in full),-12,4
COc1ccc(CCNC(=O)C(F)(F)F)cc1S(N)(=O)=O,-9,-1
Cc1noc(C)c1NC(=O)N(C)C[C@@H]1Oc2cc(Br)ccc2S(=O)(=O)N([C@@H](C)CO)C[C@H]1C,1,-1
O=C(Nc1ccc(F)cc1)C(CCc1ccccc1)N1CCN(c2cccc(C(F)(F)F)n2)CC1 (stereo not given),-1,3
O=C(Nc1ccc2c(c1)OCCO2)C(c1ccnc2ccccc12)n1c(=O)c(-c2ccco2)nc2ccccc21 (stereo not given),-9,-6
C[C@H](NC(=O)c1ncn2c1c(=O)[nH]c1ccc(Br)cc12)c1ccccc1,-4,-3
Cc1cccc(C)c1NC(=O)C1(C)CN(S(C)(=O)=O)CC(=O)N1CCOc1ccccc1 (stereo not given),0,4
O=C(NCc1ccccc1)C(c1ccccc1)n1c(-c2ccncc2)nc2ccccc21 (stereo not given),5,-7
O=C(NCc1ccccc1)C(c1ccc(C(F)(F)F)cc1)n1c(=O)c(-c2ccco2)nc2ccccc21 (stereo not given),0,6
Cc1ccc(S(=O)(=O)N2C[C@@H](C)[C@]3(C2)[C@H](O)[C@H](OC(=O)NCc2ccccc2F)C[C@H]2C(=O)N(c4ccccc4)C(=O)[C@H]23)cc1,-16,0
Cc1cc(C)c2c(=O)n3c(nc2c1)C(Cc1ccccc1)NC(=O)c1cc2ccccc2cc1-3 (stereo not given),5,-2
CCOC(=O)[C@]12CCCC=C1N(CCC1=CCCCC1)C(=O)[C@H](CC(=O)NCCCCc1ccccc1)C2,-1,-1
Cc1cccc(-c2n[nH]nc2C2=CC(=O)CC(C)(C)C2)c1,-3,4
C[C@H]1CN([C@@H](C)CO)S(=O)(=O)c2ccc(Br)cc2O[C@@H]1CN(C)C(=O)Nc1ccc2c(c1)OCO2,-9,6

# Laid out differently: six of the compounds above
canonical_smiles	CtBP-E1A blk	Six1-Eya2 inh
COC(=O)[C@@]12C[C@@H](CC(=O)N3CCC(c4ccccc4)CC3)C(=O)N(Cc3ccccc3)C1=CCC(C)(C)C2	0	-16
COc1ccc(CCNC(=O)C(F)(F)F)cc1S(N)(=O)=O	-9	-1
Cc1cccc(-c2n[nH]nc2C2=CC(=O)CC(C)(C)C2)c1	-3	4
Cc1csc(-c2nc3ccccc3n2C(C(=O)NC(C)(C)C)c2cc3ccccc3o2)c1 (stereo not given)	3	-11
Cc1ccc(S(=O)(=O)N2C3CC(c4ccccc4)N(S(=O)(=O)c4cccc(Cl)c4)CC3C(=O)C[C@H]2c2ccccc2)cc1 (stereo not given in full)	-12	4
COC(=O)[C@]12CCCCC=C1N(CCc1ccc(OC)c(OC)c1)C(=O)[C@H](CC(=O)N1CCC(c3ccccc3)CC1)C2	-22	-27

# Next compounds follow:
SMILES,CtBP-E1A blk,Six1-Eya2 inh
CCOC(=O)[C@]12CCCC=C1N(CCc1ccc(OC)c(OC)c1)C(=O)[C@H](CC(=O)NCCc1ccccc1OC)C2,-6,-3
C[C@H]1CN([C@@H](C)CO)C(=O)c2cc(Br)cnc2O[C@H]1CN(C)S(=O)(=O)c1cccs1,-16,-3
O[C@H]1CN(CC2CCCCC2)[C@@H](c2ccccc2)C[C@@H]1n1cc(C2CC2)nn1,-4,-2
O=C(NC1CCCC1)C(C1CC1)n1c(C2CC2)nc2ccccc21 (stereo not given),-5,-7
CC(=O)C[C@@H]1OC[C@H](Cc2ccccc2)N1S(=O)(=O)c1ccc(C)cc1,0,-3
CC(C)(C)OC(=O)NCCc1nc(NC(=O)OCc2ccccc2)sc1C(=O)O,-2,-3
COc1ccc(CN2C[C@H](O)COC[C@@H]3O[C@H](CC(=O)NCc4ccncn4)CC[C@H]32)cc1,2,7
CCc1cc(-c2cnnn2Cc2ccccc2)ccc1-c1cn(CC(C)C)nn1,0,-4
O=C(NC1CCCC1)C(c1ccccc1)n1c(-c2cccs2)nc2ccccc21 (stereo not given),-5,-5
COC(=O)[C@@]12C[C@@H](CC(=O)NCc3ccc(C)o3)C(=O)N(Cc3ccccc3)C1=CCC(C)(C)C2,0,-11
Cc1ccc(S(=O)(=O)N2c3ccccc3OC(C(=O)OC(C)(C)C)(C(=O)OC(C)(C)C)C2CC(=O)c2ccccc2)cc1 (stereo not given),-8,-4
CCCCNC(=O)C(NC(=O)Cc1cc(OC)cc(OC)c1)C(=O)c1ccccc1 (stereo not given),6,2
COCC(=O)N1C[C@H](C)[C@H](OC)CN(C)C(=O)c2cc(NC(=O)Nc3cccc(F)c3)ccc2OC[C@@H]1C,3,-1
CCN(CC)C(=O)C1=C(C)N(Cc2ccc(C(C)(C)C)cc2)C(=O)C(CC(=O)NCc2ccco2)C1 (stereo not given),-16,-4
COc1cccc(CN(C)CCCn2cnc3c(OC)ncnc32)c1,3,4
CCOC(=O)[C@]12CCCC=C1N(CCC1=CCCCC1)C(=O)[C@H](CC(=O)NCCCN1CCCC1=O)C2,-2,-3
Cc1ccc(-c2nc3ccc(Br)cn3c2CC(C)(C)C)cc1,0,7
Cc1ccc([C@H]2C[C@H](n3cc(C4CC4)nn3)[C@@H](O)CN2C(=O)c2cccs2)cc1,3,-2
C[C@@H]1CN([C@H](C)CO)C(=O)c2cc(Br)cnc2O[C@H]1CN(C)C(=O)Cc1ccccc1,7,5
COC(=O)C(C(=O)OC)c1ccccc1NS(=O)(=O)c1c(C)cc(C)cc1C,6,0
COc1ccc(NC(=O)C[C@H]2C(=O)N(c3ccc(Br)cc3)C[C@@H]2C)cc1,3,-3
COc1ccc(NC(=O)C2C(c3ccc4c(c3)OCO4)=Nc3ccccc3N2C(C)=O)cc1 (stereo not given),-15,-2
CC(C)(C)NC(=O)C1C(c2ccc(C(F)(F)F)cc2)=Nc2ccccc2N1C(=O)c1cccc2ccccc12 (stereo not given),4,1
CCC(C)CN1C(=O)CSCC1(C)C(=O)NCc1ccccc1 (stereo not given),-1,7
CC(c1nc2ccccc2n1Cc1ccccc1)n1c(-c2cnccn2)nc2ccccc21 (stereo not given),5,-14
# New compounds follow:
SMILES,CtBP-E1A blk,Six1-Eya2 inh
CCCCOCCCNC(=O)C[C@@H]1C[C@@]2(C(=O)OC)CCCCC=C2N(Cc2ccc3c(c2)OCO3)C1=O,-10,-10
COC(=O)[C@@]12C[C@@H](CC(=O)N3CCN(C(=O)c4ccco4)CC3)C(=O)N(Cc3ccco3)C1=CCC(C)(C)C2,3,-10
CN(C)CCN(C)C1CN(Cc2ccc([N+](=O)[O-])cc2)S(=O)(=O)C1 (stereo not given),-8,-3
CCCCNC(=O)c1[nH]c(C2CCNCC2)nc1-c1cccc(C(F)(F)F)c1,0,-5
CCCNC(=O)N[C@H]1C=C[C@H](CC(=O)OC)O[C@@H]1CO,-17,9
CC1C(=O)N(Cc2cn(CCC3OCCO3)nn2)CCS(=O)(=O)N1Cc1ccc(-c2cccc(CO)c2)cc1 (stereo not given),2,0
Cc1ccc(S(=O)(=O)N2[C@H](CC(=O)c3cccc4ccccc34)OC[C@@H]2C(C)C)cc1,3,10
COCC(=O)N(C)C[C@H]1Oc2cc(C#Cc3cccnc3)ccc2S(=O)(=O)N([C@H](C)CO)C[C@H]1C,-11,3
COc1ccc(C(C(=O)NCc2ccccc2)n2c(=O)c(-c3ccccc3)nc3ccccc32)cc1 (stereo not given),0,1
C[C@@H]1CN([C@H](C)CO)C(=O)c2cc(NC(=O)Nc3ccc(F)cc3)ccc2O[C@@H](C)CCCCO[C@H]1CN(C)S(=O)(=O)c1cccs1,-8,-4
O=c1c(-c2ccccc2)nc2ccccc2n1C(c1ccccn1)c1nc2ccccc2[nH]1 (stereo not given),1,-20
COc1ccc(CN(C)CCCn2cnc3c(SC)ncnc32)cc1OC,0,1
COC(=O)[C@]12CCCCC=C1N(CCc1ccc(OC)c(OC)c1)C(=O)[C@H](CC(=O)N1CCCCC1)C2,6,-2
CC(C)(C)OC[C@H](NC(=O)c1[nH]cnc1C(=O)Nc1ccccc1F)C(=O)OC(C)(C)C,-16,-12
O=C(C[C@@H]1CC[C@H](NC(=O)Cc2ccccn2)[C@@H](CO)O1)NCCc1ccccc1,-19,-1
Cc1cccc(N2CCN(C(C(=O)NCc3ccccc3)c3ccc(F)cc3)CC2)c1C (stereo not given),2,-10
CC(C)NC(=O)C1(C)CSCC(=O)N1Cc1cccs1 (stereo not given),4,6
COCCN1C(=O)CN(S(C)(=O)=O)CC1(C)C(=O)Nc1c(C)cccc1C (stereo not given),1,8
O=c1c2cc3ccccc3nc2ncn1CCc1ccc(Cl)cc1,6,-5
Cc1ccc([C@H]2C[C@H](n3cc(C4CC4)nn3)[C@@H](O)CN2Cc2cccs2)cc1,1,-7
C=CCOC(=O)Nc1nc(CCNC(=O)OCc2ccccc2)c(C(=O)OC)s1,6,-1
COC(=O)C[C@@H]1C[C@H]2c3cc(NS(=O)(=O)c4ccccc4)ccc3O[C@H]2[C@@H](CO)O1,-14,2
CN1C(=O)[C@@](O)(c2cn(C)c3ccccc23)c2ccccc21,1,1
COC(=O)[C@]12CCCCC=C1N(CCc1ccc(OC)c(OC)c1)C(=O)[C@H](CC(=O)NCc1ccc(OC)c(OC)c1)C2,-11,-21
O=C(NCc1ccccc1)C(C1CC1)n1c(Cc2cc(F)cc(F)c2)nc2ccccc21 (stereo not given),4,-3
COC(=O)C[C@H]1C=C[C@H](NC(=O)c2ccc(F)cc2)[C@@H](CO)O1,0,7
Cc1ccc(S(=O)(=O)N2[C@@H](CO)CO[C@H]2CC(=O)c2ccccc2)cc1,1,-9
COC(=O)C[C@H]1CC[C@H](NC(=O)Nc2ccccc2F)[C@@H](CO)O1,-2,2
Cc1cccc(C#CC2=CC(=O)CC(C)(C)C2)c1,6,-1
COC(=O)C1=CN(c2ccc(F)cc2)C(N)=C(C#N)C1c1ccccc1 (stereo not given),6,-5

# Whole records, quoted from the list:
# Entry for O=c1c(-c2ccccc2)nc2ccccc2n1C(c1ccccn1)c1nc2ccccc2[nH]1 (stereo not given) → CtBP-E1A blk: 1; Six1-Eya2 inh: -20
# Entry for CC1C(=O)N(Cc2cn(CCC3OCCO3)nn2)CCS(=O)(=O)N1Cc1ccc(-c2cccc(CO)c2)cc1 (stereo not given) → CtBP-E1A blk: 2; Six1-Eya2 inh: 0

# Arranged by value in Six1-Eya2 inh (falling): some entries from above
SMILES	Six1-Eya2 inh
CCCNC(=O)N[C@H]1C=C[C@H](CC(=O)OC)O[C@@H]1CO	9
COc1ccc(NC(=O)C2C(c3ccc4c(c3)OCO4)=Nc3ccccc3N2C(C)=O)cc1 (stereo not given)	-2
CCOC(=O)[C@]12CCCC=C1N(CCC1=CCCCC1)C(=O)[C@H](CC(=O)NCCCN1CCCC1=O)C2	-3
CCN(CC)C(=O)C1=C(C)N(Cc2ccc(C(C)(C)C)cc2)C(=O)C(CC(=O)NCc2ccco2)C1 (stereo not given)	-4
O=c1c2cc3ccccc3nc2ncn1CCc1ccc(Cl)cc1	-5

# These rows are one share of the data; the hit share may differ from the screen's.
